High-throughput results from PubChem BioAssay.
FGF22 binding: binders of human FGF22 protein, primary screen, FGF22 synaptogenesis inhibitor project, biophysical, thermal shift, single point. Fibroblast growth factor 22 (Homo sapiens), Q9HCT0. recombinant FGF22 thermal shift, SYPRO orange fluorescence; percent of sucrose octasulfate shift, DMSO zero. calls only at 9.99 µM. 340,000 tested, 1.5% active. AID 651658, 2012;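 active = melting point raised past a set limit in the mean and every replicate; three in four hits are not shown here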
Target sequence (Q9HCT0 whole entry, looked up): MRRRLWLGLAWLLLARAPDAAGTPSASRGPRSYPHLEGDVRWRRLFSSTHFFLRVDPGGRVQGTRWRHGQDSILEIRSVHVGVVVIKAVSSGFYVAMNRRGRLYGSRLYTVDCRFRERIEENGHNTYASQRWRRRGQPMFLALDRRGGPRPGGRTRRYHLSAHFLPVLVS
Ecoli rRNA inh: reduced GFP signal of wild-type E. coli, primary screen, bacterial rRNA inhibitor project, GFP/RFP fluorescence, OD600, single point. AID 720706, 2013. E. coli WT GFP vs humanized-ribosome RFP mutants, 24 h; stronger effect = lower value; DMSO median 0, no signal -100. 350,000 tested, 1.6% active. GFP signal change (wild-type ribosome), % (concentration not given with the values);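 active = significant combined selectivity score with lowered wild-type GFP, culture density cut under 30%, mutant RFP and density less affected; inactive = any of these conditions unmet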; note: one replicate is shown; some compounds called inactive have numbers as strong as hits
AF4-AF9 inh: inhibitors of AF4 peptide binding to AF9, primary screen, biochemical, AlphaScreen, biotin-AF4 peptide, FLAG-AF9, single point | 350,000 tested, 0.47% active | Protein AF-9 (Homo sapiens), P42568 | inhibition, % at 10 µM;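 active = every replicate reaching a set inhibition limit, whatever the replicate mean, cut at about 25% in these data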;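 note: 0% = plate neutral control median and 100% = total signal loss; the record names both 10 and 1 µM as test concentration; the first replicate is given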
Target sequence (P42568 whole entry, looked up): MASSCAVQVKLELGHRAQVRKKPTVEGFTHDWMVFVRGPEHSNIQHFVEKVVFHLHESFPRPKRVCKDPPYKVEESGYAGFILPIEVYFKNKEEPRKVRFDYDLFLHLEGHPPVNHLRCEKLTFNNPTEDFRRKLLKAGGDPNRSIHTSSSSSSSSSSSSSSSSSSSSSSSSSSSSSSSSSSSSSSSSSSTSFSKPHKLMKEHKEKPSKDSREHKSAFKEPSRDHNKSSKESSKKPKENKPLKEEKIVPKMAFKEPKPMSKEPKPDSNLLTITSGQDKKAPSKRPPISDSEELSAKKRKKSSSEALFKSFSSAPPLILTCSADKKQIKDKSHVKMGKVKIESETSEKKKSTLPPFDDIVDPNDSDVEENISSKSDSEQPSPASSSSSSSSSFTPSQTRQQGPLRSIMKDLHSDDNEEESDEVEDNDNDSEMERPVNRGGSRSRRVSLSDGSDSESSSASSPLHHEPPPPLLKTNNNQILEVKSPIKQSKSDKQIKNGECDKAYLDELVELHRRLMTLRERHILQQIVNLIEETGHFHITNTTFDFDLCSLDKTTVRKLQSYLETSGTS
Ecoli rRNA inh OD600: also measured in Ecoli rRNA inh; calls as there; OD600 change, %; measured here: OD600 growth;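 optical density of the mix in the first replicate; 0 = DMSO median and -100 = no signal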
Ecoli rRNA inh RFP: further read-out of Ecoli rRNA inh, marked with its call; RFP signal change, %; measured here: RFP humanized mutant strains;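 first replicate; 0 = DMSO median and -100 = no signal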
The depositor's hits bear a star; i = inactive; & = joins results of further samples. Only part of the results is shown; rates above refer to the full screens.

SMILES	FGF22 binding	Ecoli rRNA inh	Ecoli rRNA inh OD600	Ecoli rRNA inh RFP	AF4-AF9 inh
CCCC#Cc1ccc2c(c1)O[C@H](CN(C)C)[C@H](C)CN([C@H](C)CO)S2(=O)=O	i	0	-4	-2.7	0.6
CCNC(=O)[C@@H]1[C@@H](CO)[C@@H]2Cn3c(ccc(-c4ccccc4F)c3=O)[C@H]1N2C(=O)CC	i	0	5	-0.7	0.5
CO[C@H]1CN(C)C(=O)c2cc(NS(=O)(=O)c3ccccc3)ccc2OC[C@@H](C)N(Cc2ccccn2)C[C@@H]1C	i	-2&-8	-5&-4	3.3&7.2	-0.8&1.8
C[C@H](CO)N1C[C@H](C)[C@@H](CN(C)Cc2ccc3c(c2)OCO3)OCc2cn(nn2)CCCC1=O	i	-3	2	0.7	-1.7
C[C@@H]1CN([C@H](C)CO)C(=O)c2cccc(NC(=O)Nc3cccc4ccccc34)c2O[C@@H]1CN(C)C(=O)NC1CCCCC1	i	2	8	-2.1	3.3
CC(C)C#Cc1cnc2c(c1)C(=O)N([C@H](C)CO)C[C@@H](C)[C@@H](CN(C)C(=O)Nc1ccc(F)cc1)O2	i	1	0	-0.1	2.5
C[C@H](CO)N1C[C@H](C)[C@@H](CN(C)C)Oc2ccc(NC(=O)NC3CCCCC3)cc2C1=O	i	2	-1	-1.2	2.0
Cc1ccc(S(=O)(=O)N(C)C[C@@H]2Oc3ccc(NC(=O)Nc4ccc(F)cc4)cc3CC(=O)N([C@H](C)CO)C[C@@H]2C)cc1	i	1	-4	1.1	1.1
C[C@@H]1CCCCO[C@@H](CN(C)C(=O)CCCN(C)C)[C@@H](C)CN([C@H](C)CO)C(=O)c2cc(NC(=O)Nc3ccc(F)cc3)ccc2O1	i	3	20	-0.3	-12
COCC(=O)N(C)C[C@@H]1Oc2ncc(C#Cc3ccc(F)cc3)cc2C(=O)N([C@H](C)CO)C[C@@H]1C	i	1	5	-1.2	-2.4
CN1c2ccc(-c3ccc(F)cc3)cc2[C@@H]2[C@@H](CCN2S(=O)(=O)c2cccc(F)c2)[C@H]1CO	i	-4	-4	0.5	3.3
N#Cc1ccc(Cl)cc1NC(=O)CN1C(=O)C(=O)N(CCC2=CCCCC2)C1=O	i	3	5	2.7	-5.0
CCC(=O)N1CC2(C1)[C@@H](c1ccc(-c3ccc(C)cc3)cc1)[C@H](CO)N2S(=O)(=O)CC	i	-2	-13	3.2	2.2
COCC(=O)N1[C@@H](CO)[C@@H]2c3ccccc3N(C(=O)Nc3ccccc3F)C[C@@H]21	i	4	13	2.7	5.7
C[C@H](CO)N1C[C@H](C)[C@H](CN(C)C(=O)NC2CCCC2)Oc2cc(C#Cc3ccc(F)cc3)ccc2S1(=O)=O	i	-5	-3	0.9	-1.9
N#C[C@H]1[C@@H](c2ccccc2)[C@@H](CO)N1C(=O)Cc1ccccn1	i	4	10	1.0	-0.8
CN(C)C(=O)C[C@@H]1C=C[C@H](NC(=O)C2CC2)[C@H](CO)O1	i	0	11	0.4	0.1
Cc1noc(C)c1NC(=O)Nc1ccc2c(c1)C(=O)N([C@H](C)CO)C[C@@H](C)[C@@H](CN(C)C(=O)NC1CCCCC1)OCCCC[C@H](C)O2	i	-1	-7	1.6	2.8
CNC(=O)C[C@H]1CC[C@@H]2[C@@H](COc3ccc(NC(=O)Nc4ccc(F)cc4)cc3C(=O)N2C)O1	i	2	-2	2.8	0.1
COc1cccc(C(=O)N2C[C@@H]3[C@H](c4ccccc42)[C@H](CO)N3Cc2ccccc2F)c1	i	-9	-22	1.9	2.9
Cc1ccc(S(=O)(=O)N(C)C[C@H]2Oc3ccc(NS(=O)(=O)c4ccc(Cl)cc4)cc3CC(=O)N([C@H](C)CO)C[C@@H]2C)cc1	i	-1	-4	0.4	-1.1
O=C([C@@H]1[C@@H](CO)[C@@H]2Cn3c(ccc(-c4cccnc4)c3=O)[C@H]1N2CCC(F)(F)F)N1CCCCC1	i	3	8	0.3	-2.3
CC1C(=O)N(Cc2cn(Cc3ccco3)nn2)CCS(=O)(=O)N1Cc1ccc(-c2cccc(CO)c2)cc1 (centres undefined)	i	0	-1	2.1	-0.5
CC(C)NC(=O)Nc1cccc2c1O[C@H](CN(C)Cc1ccc(C(F)(F)F)cc1)[C@H](C)CN([C@H](C)CO)C2=O	i	-5	-7	-2.2	-0.8
CO[C@@H]1CN(C)C(=O)c2ccc(NC(=O)C3CCC3)cc2OC[C@@H](C)N(C(=O)CN(C)C)C[C@H]1C	i	2	3	-0.7	-1.1
CC(C)CC(N)c1csc(NC(=O)c2cc(C(C)(C)C)nn2Cc2ccccc2)n1 (centres undefined)	i	-52	-80	-16	14
C[C@H]1CN([C@@H](C)CO)S(=O)(=O)c2ccc(C3=CCCC3)cc2O[C@@H]1CN(C)Cc1ccncc1	i	-27	-64	1.4	-0.1
CC(=O)N(C)C[C@H]1Oc2cc(C#CCC3CCCC3)ccc2S(=O)(=O)N([C@H](C)CO)C[C@H]1C	i	-33	-69	9.2	6.9
C[C@H](CO)N1C[C@H](C)[C@@H](CN(C)C(=O)c2cccc(F)c2)Oc2cc(C#CC3CC3)ccc2S1(=O)=O	i	0	-13	1.1	4.8
CCN(CC)S(=O)(=O)c1ccc(N2CC(C(=O)NCc3ccco3)CC2=O)cc1 (centres undefined)	i	13	9	0.2	-7.3
C[C@H]1CCCCO[C@@H](CN(C)S(=O)(=O)c2ccccc2)[C@@H](C)CN([C@@H](C)CO)C(=O)c2cc(NC(=O)Cc3ccccc3)ccc2O1	i	-4	6	1.6	0.5
O=C(N[C@H]1CC[C@@H](CCn2cc(C3(O)CCCC3)nn2)O[C@@H]1CO)C1CCCCC1	i	2	11	0.7	-1.6
COc1cccc(CNC(=O)C[C@@H]2CC[C@@H](NC(=O)C3CCOCC3)[C@H](CO)O2)c1	i	2	7	-2.9	0.1
COC(=O)C[C@H]1CC[C@@H](NS(=O)(=O)c2ccc(OC)cc2)[C@H](CO)O1	i	1	5	-2.7	-2.6
COc1ccccc1NC(=O)N1CCCCN2[C@H](C1)[C@H](c1ccc(-c3cccc(C)c3)cc1)[C@@H]2CO	i	0	1	2.5	-2.5
C[C@H](CO)N1C[C@H](C)[C@H](CN(C)S(=O)(=O)c2ccc(-c3ccccc3)cc2)OCc2cnnn2CCCC1=O	i	-1	-19	5.2	0.9
C[C@@H]1CN([C@@H](C)CO)S(=O)(=O)c2ccc(-c3ccc(F)cc3)cc2O[C@H]1CN(C)Cc1ccccc1C(=O)O	i	-1	2	-2.9	1.0
COCC(=O)N1CC2(C1)CN(Cc1cccc(Cl)c1)[C@@H](CO)c1[nH]c3cc(OC)ccc3c12	i	-6	-17	2.2	-0.2
CN1C(=O)c2cc(NC(=O)c3ccc(F)c(F)c3)ccc2OC[C@H]2O[C@@H](CC(=O)N[C@H]3CCN(Cc4ccccc4)C3)CC[C@H]21	i	-4	-2	7.3	6.9
CO[C@H]1CN(C)C(=O)c2ccc(NS(=O)(=O)CC(F)(F)F)cc2OC[C@H](C)NC[C@@H]1C	i	0	-1	0.0	-1.9
O=C(Nc1ccccc1)[C@@H]1[C@@H](CO)[C@@H]2Cn3c(cccc3=O)[C@H]1N2C(=O)c1ccccc1	i	1	-4	-3.1	-2.1
CCCCCC(=O)N1C[C@@H](n2cc(-c3ccc(F)cc3)nn2)[C@H](O)C[C@@H]1c1ccc(Cl)cc1	i	-13	-32	21	-5.3
C[C@H](CO)N1C[C@H](C)[C@@H](CN(C)Cc2ccc3c(c2)OCO3)Oc2ccc(NC(=O)CCN3CCOCC3)cc2C1=O	i	3	1	-0.7	2.3
COCC#Cc1cnc2c(c1)C(=O)N([C@H](C)CO)C[C@@H](C)[C@@H](CN(C)C(=O)CCN1CCCCC1)O2	i	4	3	-0.2	-4.2
Cc1ccc(S(=O)(=O)N2C[C@H](O)COC[C@H]3O[C@H](CC(=O)NCCN4CCCCC4)CC[C@@H]32)cc1	i	6	11	-0.8	-0.6

Single records, as listed above.
C[C@@H]1CN([C@@H](C)CO)S(=O)(=O)c2ccc(-c3ccc(F)cc3)cc2O[C@H]1CN(C)Cc1ccccc1C(=O)O as listed: FGF22 binding = i; Ecoli rRNA inh = -1; Ecoli rRNA inh OD600 = 2; Ecoli rRNA inh RFP = -2.9; AF4-AF9 inh = 1.0
COc1ccccc1NC(=O)N1CCCCN2[C@H](C1)[C@H](c1ccc(-c3cccc(C)c3)cc1)[C@@H]2CO as listed: FGF22 binding = i; Ecoli rRNA inh = 0; Ecoli rRNA inh OD600 = 1; Ecoli rRNA inh RFP = 2.5; AF4-AF9 inh = -2.5
COCC#Cc1cnc2c(c1)C(=O)N([C@H](C)CO)C[C@@H](C)[C@@H](CN(C)C(=O)CCN1CCCCC1)O2 as listed: FGF22 binding = i; Ecoli rRNA inh = 4; Ecoli rRNA inh OD600 = 3; Ecoli rRNA inh RFP = -0.2; AF4-AF9 inh = -4.2

The listing picks up with the six entries that preceded the break.
SMILES	FGF22 binding	Ecoli rRNA inh	Ecoli rRNA inh OD600	Ecoli rRNA inh RFP	AF4-AF9 inh
CO[C@H]1CN(C)C(=O)c2ccc(NS(=O)(=O)CC(F)(F)F)cc2OC[C@H](C)NC[C@@H]1C	i	0	-1	0.0	-1.9
O=C(Nc1ccccc1)[C@@H]1[C@@H](CO)[C@@H]2Cn3c(cccc3=O)[C@H]1N2C(=O)c1ccccc1	i	1	-4	-3.1	-2.1
CCCCCC(=O)N1C[C@@H](n2cc(-c3ccc(F)cc3)nn2)[C@H](O)C[C@@H]1c1ccc(Cl)cc1	i	-13	-32	21	-5.3
C[C@H](CO)N1C[C@H](C)[C@@H](CN(C)Cc2ccc3c(c2)OCO3)Oc2ccc(NC(=O)CCN3CCOCC3)cc2C1=O	i	3	1	-0.7	2.3
COCC#Cc1cnc2c(c1)C(=O)N([C@H](C)CO)C[C@@H](C)[C@@H](CN(C)C(=O)CCN1CCCCC1)O2	i	4	3	-0.2	-4.2
Cc1ccc(S(=O)(=O)N2C[C@H](O)COC[C@H]3O[C@H](CC(=O)NCCN4CCCCC4)CC[C@@H]32)cc1	i	6	11	-0.8	-0.6
O=C(Nc1ccccc1)c1cc(C2CCCCN2C(=O)OCc2ccccc2)on1 (centres undefined)	i	-8	-13	-4.7	0.7
O=C(C[C@@H]1CC[C@@H]2[C@H](COC[C@@H](O)CN2Cc2ccc(Cl)cc2)O1)NCCc1ccccc1	i	-4	-17	5.0	0.5
CO[C@@H]1CC[C@@H]2CCN(C)C(=O)[C@@H](C)CN(C)C(=O)c3cc(C#N)ccc3OC[C@@H]1O2	i	7	14	-3.6	0.3
COc1ccc(S(=O)(=O)N(C)C[C@@H]2OCCCC[C@H](C)Oc3ccc(NC(=O)NC(C)C)cc3C(=O)N([C@@H](C)CO)C[C@H]2C)cc1	i	-2	-10	1.4	-1.8
COc1ccc(S(=O)(=O)N(C)C[C@@H]2Oc3ncc(C#CC4(O)CCCC4)cc3C(=O)N([C@H](C)CO)C[C@H]2C)cc1	i	-7	-4	0.8	-5.9
C[C@H](CO)N1C[C@H](C)[C@H](CN(C)S(=O)(=O)c2ccc(F)cc2)Oc2ncc(C#CC3CCCCC3)cc2C1=O	i	3	0	-0.4	-9.1
COc1ccccc1CNC(=O)C[C@H]1CC[C@H](NC(=O)CC2CC2)[C@H](CO)O1	i	1	6	-0.1	-1.5
C/C=C/c1ccc2c(c1)O[C@H](CN(C)C(=O)C1CCCCC1)[C@@H](C)CN([C@H](C)CO)S2(=O)=O	i	-5	-9	1.1	4.2
CCCC(=O)Nc1ccc2c(c1)OC[C@H](C)N(Cc1nccs1)C[C@H](C)[C@@H](OC)CN(C)C2=O	i	0	0	-2.9	-2.8
